# High-throughput results: PubChem, National Center for Advancing Translational Sciences (NCATS)
# StopGo FLuc: lowers the firefly signal of an FMDV 2A StopGo reporter; AID 1745856; HEK cells with a luciferase reporter of 2A StopGo recoding; Potency, µM (titrated, usually from 57.5 µM), without a hit: at the top dose signal change, negative = less light; hit rate 0.23% among 120,000; active = well fitted falling curve with a large enough effect; inconclusive = small, poorly fitted or top-dose-only effect; inactive = no such curve, though single readings can be large or run the other way; note: nearly all actives have a fitted effect of over 60% in size; overnight with compound
# StopGo RLuc: lowers the Renilla signal of an FMDV 2A StopGo reporter; HEK cells with a luciferase reporter of 2A StopGo recoding; Potency, µM (top dose mostly 57.5 µM), for the others: at the highest dose signal change, negative = less light; hit rate 0.32% among 120,000; AID 1745857; active means well fitted falling curve with a large enough effect; inconclusive means small, poorly fitted or top-dose-only effect; inactive means no such curve, though single readings can be large or run the other way; note: nearly all actives have a fitted effect of over 55% in size; overnight with compound
# * = called active by the depositor; ? = inconclusive; & = joins results of further samples; [ ] = dose if it differs, or a comment. % is set by controls: 0 for no effect and ±100 for the full control effect; potency is the fitted concentration of half-maximal effect. The order is random. About 0.55% of those tested had a hit in this group.
SMILES,StopGo FLuc,StopGo RLuc
CCOc1cccc(C(C)NC(=O)N(C)Cc2ccc(C#N)cc2)c1 (stereo not given),-1%,-10%
CC(NC(=O)Cc1ccc(Cl)cc1)C12CC3CC(CC(C3)C1)C2 (stereo not given),-1%,23%
O=C(c1nc(-c2ccc(F)cc2)no1)N1CCN(c2ccc(Cl)c(Cl)c2)CC1,-9%,-6%
Cc1csc(C(C#N)C(=O)CSc2ccc(C(F)(F)F)cn2)n1 (stereo not given),15%,7%
COc1ccc(NC(=O)c2cc3cccc(OC)c3oc2=O)c(OC)c1,0%,-8%
Cc1cc(C)cc(C(=O)Nc2ccc(-c3nc4ccccc4s3)cc2C)c1,57%[activator],11%
CNC(=S)N/N=C(/C)c1ccc([N+](=O)[O-])cc1,7%,14%
COc1ccc(Nc2oc(/C=C/c3ccccc3OC)nc2C#N)cc1,153%&0%[activator],5%&-2%
O=C(NCCc1ccccc1)c1cncc(Br)c1,146%[activator],8%
CCOc1ccccc1NC(=O)C1CCCN(S(=O)(=O)c2c(C)[nH]c(=O)[nH]c2=O)C1 (stereo not given),-3%,-3%
COc1ccc2c(C)c(CCC(=O)NCCc3ccccc3)c(=O)oc2c1,12%,-8%
CCSc1nc2ncn(CC(=O)Nc3cc(F)ccc3F)c(=O)c2s1,2%,-4%
CNc1c(NS(=O)(=O)c2ccc(C(C)C)cc2)c(=O)oc2ccccc12,20%,5%
Cc1ccccc1NC(=O)c1c(NC(=O)c2ccccc2F)sc2c1CCC(C)C2 (stereo not given),-15%,-10%
COc1ccc(C2=C(C)C(N3CCC(C(=O)Nc4ccccc4F)CC3)=NS2(=O)=O)cc1,-5%,-2%
CCOc1ccc2oc(=O)cc(CN3CCN(CC(=O)Nc4ccc(F)cc4C)CC3)c2c1,1%,0%
Cc1oc2cc(OS(C)(=O)=O)ccc2c(=O)c1Oc1ccccc1Br,?,?
CC(C)NCCNC(=O)c1cccs1,2%,5%
CCN(CC)c1ccc(NC(=O)CCS(=O)(=O)c2cc3c(cc2Cl)NC(=O)CO3)c(C)c1,-14%,-11%
O=C1CN(c2nc(-c3ccncc3)nc3ccccc23)CCN1,3%,0%

# Complete entries, quoted from the list. Screens in order: StopGo FLuc	StopGo RLuc
# CC(C)NCCNC(=O)c1cccs1 across the screens: 2%	5%
# Cc1ccccc1NC(=O)c1c(NC(=O)c2ccccc2F)sc2c1CCC(C)C2 (stereo not given) across the screens: -15%	-10%
# CCOc1ccccc1NC(=O)C1CCCN(S(=O)(=O)c2c(C)[nH]c(=O)[nH]c2=O)C1 (stereo not given) across the screens: -3%	-3%
# COc1ccc(NC(=O)c2cc3cccc(OC)c3oc2=O)c(OC)c1 across the screens: 0%	-8%

# The listing picks up, repeating the four entries before the break.
SMILES,StopGo FLuc,StopGo RLuc
Cc1oc2cc(OS(C)(=O)=O)ccc2c(=O)c1Oc1ccccc1Br,?,?
CC(C)NCCNC(=O)c1cccs1,2%,5%
CCN(CC)c1ccc(NC(=O)CCS(=O)(=O)c2cc3c(cc2Cl)NC(=O)CO3)c(C)c1,-14%,-11%
O=C1CN(c2nc(-c3ccncc3)nc3ccccc23)CCN1,3%,0%
Cn1c(=O)c2c(ncn2CC(=O)Nc2ccccc2Oc2ccccc2Cl)n(C)c1=O,-7%,-17%
CCOc1ccc(-c2nc(Cn3c(=O)cc(-c4ccccc4)c4c(C)nn(C)c43)c(C)o2)cc1OC,49%[activator],14%
CCc1ccc(NC(=O)Cc2cn(C)c3ccccc23)cc1,83%[activator],99%[activator]
C=CCNc1nc(C(=O)OCc2c(F)c(F)c(F)c(F)c2F)cs1,5%,0%
CCCCCCCCCCCCS(=O)C1CCCCC1OC(C)=O (stereo not given),4%,6%
CCCSc1ncc(Cl)c(C(=O)Nc2c(C(=O)c3ccc(C)cc3)oc3ccccc23)n1,?,?
Cc1cccn2c(=O)c3cc(C(=O)NCCc4ccc(S(N)(=O)=O)cc4)n(C)c3nc12,-1%,-10%
Cc1ccc2nc(N(Cc3cccnc3)C(=O)Cc3ccccc3)sc2c1,26%,23%
c1ccc(CNc2nc(-c3cccnc3)nc3ccccc23)cc1,-3%,7%
COc1ccccc1C(=O)N1CCN(c2oc(-c3cccs3)nc2C#N)CC1,-1%,2%
Cn1cnc2c1c(=O)n(Cc1cccc(Cl)c1)c(=O)n2C,7%,15%
Cc1cccc(N2CCN(C(=O)C3CCN(S(=O)(=O)Cc4ccccc4)CC3)CC2)c1C,-7%,-15%
O=C(c1ccc(Cl)cc1)n1nc(-c2ccccc2)nc1NCc1ccco1,47%[activator],-12%
COC(=O)c1ccc(CNC(=O)c2ccc(C#N)cc2)cc1,16%,9%
COc1ccc(CNC(=O)C2CCN(S(=O)(=O)c3cccc(-c4noc(C)n4)c3)CC2)cc1,-1%,2%
COc1cc(-c2c(NC(=O)c3ccccc3F)oc3c(C)cccc3c2=O)cc(OC)c1OC,?,?
Cc1ccc2[nH]c(C(=O)NCCc3ccccc3)cc2c1,135%[activator],-7%
O=C(NCCNC(=O)c1nc2ccccc2c(=O)[nH]1)c1ccc2ccccc2c1,14%,-5%
CC(Sc1nnc2ccccn12)C(=O)c1ccc(F)c(F)c1 (stereo not given),11%,16%
Cc1ccc(C)c(Cn2c(C(C)NC(=O)c3ccccc3)nc3ccccc32)c1 (stereo not given),-15%,-9%
CC(C)(C)c1cc(C(=O)NCC(=O)O)cc(C(C)(C)C)c1,20%,5%
CCN(CC)S(=O)(=O)N(C)CC1COc2ccccc2O1 (stereo not given),-6%,3%
CCCNC(=O)NC(C(N)=O)C(N)=O,18%,-10%
Cc1cc(C)cc(NC(=O)c2csc3c2CCCC3)c1,163%[activator],0%
Cc1ccccc1CN1C(=O)c2ccccc2S(=O)c2ccc(C(=O)NCc3ccco3)cc21 (stereo not given),-2%,41%[activator]
COC(=O)CCNC(=O)/C=C/c1cccc(C)c1,78%[activator],3%
CCOC(=O)c1ccc(OCC(O)CNCCCn2nc(C)cc2C)cc1 (stereo not given),18%,-9%
COc1ccc(CSc2nnc(Cc3ccc(OCC(C)C)cc3)n2C)cc1Br,20%,35%[activator]
CC(C)Oc1ccc(C(O)(CC[N+](C)(C)C)C2CCCCC2)cc1 (stereo not given),-13%,-5%
COc1ccc(-c2cc(C(F)(F)F)n3nc(-c4ccc(Cl)cc4)cc3n2)cc1OC,2%,3%
Cc1ccc(C)c(S(=O)(=O)c2nnn3c2nc(N2CCCCC2)c2sccc23)c1,-24%,28%
O=C(CNC(=O)c1ccc(-c2ccccc2)cc1)OCc1ncc(-c2ccccc2)o1,137%[activator],-6%
COc1cccc(Nc2cc(C)nc3ccc(Cl)cc23)c1,2%,-8%
COCc1nn2c3c(cnc2c1-c1ccccc1)C(=O)CC(c1ccccc1)C3 (stereo not given),-11%,-9%
Cc1ccc(N(C(=O)C23CC4CC(CC(C4)C2)C3)C2C=CS(=O)(=O)C2)cc1Cl (stereo not given),-24%,-23%
O=C(OC(C(=O)NC1CC1)c1ccccc1)c1n[nH]c(=O)c2ccccc12 (stereo not given),-3%,-10%
Cc1ccc(S(=O)(=O)c2cn(CC(=O)Nc3ccc(F)cc3)c3cc4c(cc3c2=O)OCO4)cc1,-19%,-7%
CCC(CNC(=O)c1ccc2c(c1)NC(=O)CS2)c1ccccc1 (stereo not given),84%[activator],105%[activator]
c1ccc(-c2nc(-c3ccc4c(c3)OCCCO4)cs2)nc1,-59%,4%[1.06 µM]
COc1ccc(Cn2c(=O)[nH]c3cc(C(=O)N4CCN(c5cccc(OC)c5)CC4)ccc3c2=O)cc1,-5%,-1%

# Next section, starting with the last five of the part before.
SMILES,StopGo FLuc,StopGo RLuc
O=C(OC(C(=O)NC1CC1)c1ccccc1)c1n[nH]c(=O)c2ccccc12 (stereo not given),-3%,-10%
Cc1ccc(S(=O)(=O)c2cn(CC(=O)Nc3ccc(F)cc3)c3cc4c(cc3c2=O)OCO4)cc1,-19%,-7%
CCC(CNC(=O)c1ccc2c(c1)NC(=O)CS2)c1ccccc1 (stereo not given),84%[activator],105%[activator]
c1ccc(-c2nc(-c3ccc4c(c3)OCCCO4)cs2)nc1,-59%,4%[1.06 µM]
COc1ccc(Cn2c(=O)[nH]c3cc(C(=O)N4CCN(c5cccc(OC)c5)CC4)ccc3c2=O)cc1,-5%,-1%
S=C(NC(=NCc1ccccc1)c1ccccc1)Nc1ccccc1,130%[activator],276%[activator]
C/C=C/Cn1c(NCCO)nc2c1c(=O)[nH]c(=O)n2C,-2%,-5%
COc1ccc(Oc2coc3cc(OC(=O)c4ccccc4)ccc3c2=O)cc1,78%[activator],11%
CC(C)c1ccc(NC(=O)c2cc3ccccc3oc2=O)cc1,138%[activator],-7%
CCN(CC)CCN1C(=O)CN=C(c2ccccc2F)c2cc(Cl)ccc21,17%[11.5 µM],-2%
CCOC(=O)c1cccc(NC(=O)C2Cc3ccccc3N2C(=O)c2ccccc2)c1 (stereo not given),-10%,-15%
Cn1c(C(=O)N2CCN(C(=O)c3ccc(F)cc3)CC2)cc2ccccc21,-15%,-12%
Cc1ccccc1C1=NN(S(C)(=O)=O)C(c2ccc3nccnc3c2)C1 (stereo not given),33%[activator],3%
CCCCN(CCCNC(=O)CN1N=C(c2ccc(C)cc2)CCC1=O)c1ccccc1,-25%,4%
N#Cc1ccnc(N2CCN(C(=O)Nc3ccccc3)CC2)c1,27%,2%
COc1cccc(NC(=O)Cn2cc(S(=O)(=O)Cc3ccccc3F)c3ccccc32)c1,-16%,54%[activator]
CC(C)c1ccc(/C=N/NC(=O)c2cc(C3CC3)nc3ccccc23)cc1,57%[activator],62%[activator]
COC(=O)C1(NC(=O)c2ccc3c(c2)OCCCO3)CCCCC1,6%,-5%
C=CCOC(=O)C1=C(C)OC(N)=C(C(=O)OCC)C12C(=O)Nc1ccc(Br)cc12 (stereo not given),-1%,-4%[1.06 µM]
Cc1cc(C(=O)OCC(=O)Nc2ccccc2F)c2ccccc2n1,20%,29%
CCc1c(C)sc(NC(=O)C2CC3CCC2C3)c1C#N (stereo not given),99%[activator],11%
CC(C)CNC(=O)NC(=O)CSc1nnc(-c2ccc(C(C)(C)C)cc2)n1Cc1ccco1,?,?
Cc1ccc(Nc2nc(CN3CCN(S(=O)(=O)c4ccccc4)CC3)cs2)cc1,?,?
CC(C)C(=O)Nc1nnc(Cc2c[nH]c3ccccc23)s1,45%[activator],8%
COc1ccc2oc(=O)c(-c3csc(Nc4ccccc4)n3)cc2c1,70%[activator],0%
Cc1ccc(-c2nc3c4ccccc4n(Cc4cccc(Cl)c4)c(=O)n3n2)cc1,0%,4%
COc1cc(CCC(=O)NCc2ccc3c(c2)CCN3C(=O)c2ccccc2)cc(OC)c1OC,-20%,?
O=C(/C=C/c1ccccc1)Nc1cc(-c2nc3cc(Cl)ccc3o2)ccc1Cl,64%[activator],-8%
COc1ccccc1CNc1ccc(-c2nc(-c3ccccc3C)no2)cc1[N+](=O)[O-],12%,-5%
COc1ccc(C2C(C(N)=O)=C(C)Nc3nc(-c4ccccc4Cl)nn32)cc1 (stereo not given),27%,39%[activator]
COc1cc(Cl)c(C)cc1NC(=O)c1cc(CN2CCOCC2)on1,-11%,-11%
Cc1nc(C#N)c(N2CCN(C(=O)CN(C)C(C)C(C)C)CC2)o1 (stereo not given),-7%,-17%
O=C(Cn1c(-c2cccs2)cc2ccccc21)NCc1ccccc1Br,3%,25%
O=C(NC1CC1)c1cc(-c2ccc(Cl)c(Cl)c2)nc2ccccc12,2%,-6%
CNC(=O)NC(=O)C(Cl)c1ccccc1 (stereo not given),-5%,-3%
Cc1cccc(C(=O)NC(C2CC2)C2CC2)n1,13%,0%
CCOC(=O)c1scc(-c2ccc(C)cc2)c1S(=O)(=O)N1CCN(c2ccccc2)CC1,-9%,65%[activator]
O=C(O)C(c1c[nH]c2ccccc12)N1CCN(CCNc2cc(=O)oc3ccccc23)CC1 (stereo not given),8%,-3%
COc1cccc(OC)c1C(=O)Oc1cc(C)c2c(c1)O/C(=C\c1cccnc1)C2=O,0%,37%
Cc1ccc2c(C)c(CCC(=O)Nc3cc(Cl)ccc3F)c(=O)oc2c1,44%[activator],34%[activator]
c1ccc(-c2cc(CSc3ccc4c(c3)OCCCO4)no2)cc1,216%[activator],-3%
COc1ccc(C(=O)OCC(=O)c2cc(OC)ccc2OC)cc1,54%[activator],16%
CCNC(=S)Nc1cccc(C#N)c1,32%[activator],25%[1.06 µM]
COc1cc(OC)c(Nc2nc3ccccc3nc2NS(=O)(=O)c2ccccc2)cc1Cl,3%,-2%
CCCOc1ccc(-c2nc(C#N)c(NCCN3CCOCC3)o2)cc1,-16%,14%
Cn1c(=O)c2sccc2n(CC(=O)NCC2CCCO2)c1=O (stereo not given),0%,4%
CCC(C(N)=O)N1CCCC1=O (stereo not given),-12%,-10%
COC(=O)c1ccc(C2c3c(-c4ccc(Br)cc4)n[nH]c3C(=O)N2c2ccc(Cl)cc2)cc1 (stereo not given),-12%,-3%

# Structural class: the compounds so far containing a tert-butyl group (2)
SMILES,StopGo FLuc,StopGo RLuc
CC(C)(C)c1cc(C(=O)NCC(=O)O)cc(C(C)(C)C)c1,20%,5%
CC(C)CNC(=O)NC(=O)CSc1nnc(-c2ccc(C(C)(C)C)cc2)n1Cc1ccco1,?,?
